Lassa entry inh = inhibitors of Lassa virus binding or cell entry. Lassa virus pseudotype entry inhibition, cell reporter; control for the full effect not named in the record. Potency, µM (series often up to 37.9 µM), without a hit: at the highest dose activity change, negative = inhibition, hits mostly inhibitors. 1.2% of 300,000 active; active means well fitted inhibition curve with a large enough effect; inconclusive means small, poorly fitted or top-dose-only effect, or effect the other way; inactive means flat fitted curve, though single readings scatter; tested in HEK293 cells; note: % is set by controls: 0 for no effect and ±100 for the full control effect; nearly all actives have a fitted effect of over 50% in size; luciferase read-out
Cruzain Triton = inhibitors of Trypanosoma cruzi cruzain with detergent; P25779; purified cruzain, Z-FR-AMC fluorescence, 0.01% Triton; Potency, µM, without a hit: max response, negative = inhibition, usual class: inhibitors; 0.43% of 200,000 active;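 note: plate controls were neutral wells for no effect and buffer without enzyme for full effect; nearly all actives have a fitted effect of over 40% in size; top concentration of the series not given in the record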
Target sequence (P25779 123-467 limits assumed): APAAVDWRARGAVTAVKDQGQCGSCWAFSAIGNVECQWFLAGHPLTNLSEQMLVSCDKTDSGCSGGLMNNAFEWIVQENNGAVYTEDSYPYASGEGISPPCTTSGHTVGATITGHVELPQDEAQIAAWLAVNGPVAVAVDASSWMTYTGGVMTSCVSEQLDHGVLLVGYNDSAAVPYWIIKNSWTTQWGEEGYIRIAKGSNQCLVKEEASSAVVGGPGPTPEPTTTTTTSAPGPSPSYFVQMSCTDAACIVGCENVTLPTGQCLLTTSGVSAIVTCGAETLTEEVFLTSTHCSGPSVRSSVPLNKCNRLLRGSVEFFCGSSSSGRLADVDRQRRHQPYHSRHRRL
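Steps: dispense cruzain (1.5 nM final) in acetate buffer pH 5.5 with DTT and 0.01% Triton X-100; pin-transfer compounds; incubate 15 min RT; add Z-FR-AMC (2 uM final); read fluorescence every 30 s, using the 60 s intensity change.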
MARV entry inh = blocks Marburg virus binding to or entry into cells. Marburg virus pseudotyped entry inhibition, cell reporter; control for the full effect not named in the record; about a third of the inactives were read at about 46 µM. Potency, µM (highest dose often 37.8 µM), without a hit: at the top dose activity change, negative = inhibition, usual class: inhibitors. 1.8% of 300,000 active; active = well fitted inhibition curve with a large enough effect; inconclusive = small, poorly fitted or top-dose-only effect, or effect the other way; inactive = flat fitted curve, though single readings scatter; tested in HEK293 cells; about a fifth of its hits are not listed in these tables; note: % is set by controls: 0 for no effect and ±100 for the full control effect; luciferase read-out
RE007 growth inh = less growth of the S. pombe RE007 Vpr strain. S. pombe RE007 Vpr strain, BacTiter-Glo ATP luminescence, 24 h; control for the full effect not named in the record. 0.21% of 360,000 active. Potency, µM (doses to about 92.2 µM), for the others: at the top dose activity change, negative = less growth; active = well fitted falling curve with a large enough effect; inconclusive = small, poorly fitted or top-dose-only effect; inactive = no such curve, though single readings can be large or run the other way;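 note: % is set by controls: 0 for no effect and ±100 for the full control effect; nearly all actives have a fitted effect of over 50% in size; the assay follows cell death caused by Vpr and the record does not say whether a fall means rescue or toxicity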
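Fission yeast RE007 carrying one integrated HIV-1 vpr copy, seeded at OD 0.01 in PMG+AL medium with 23 nL pinned compound. Grown 24 h at 30 degrees; viability read by BacTiter-Glo luminescence after 5 min.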
2A StopGo = lowers the luciferase signal of an FMDV 2A StopGo reporter. 1.2% of 410,000 active. human cells with a luciferase reporter of 2A StopGo recoding; control for the full effect not named in the record. Potency, µM (top dose mostly 57.9 µM), without a hit: at the top dose signal change, negative = less light; active = well fitted falling curve with a large enough effect; inconclusive = small, poorly fitted or top-dose-only effect; inactive = no such curve, though single readings can be large or run the other way; tested in HEK293T cells; note: % is set by controls: 0 for no effect and ±100 for the full control effect; nearly all actives have a fitted effect of over 45% in size; luciferase light after 4 h
Cruzain inh noDet = inhibitors of Trypanosoma cruzi cruzain without detergent. purified cruzain, Z-FR-AMC fluorescence, no detergent. Potency, µM, for inactives: max response, negative = inhibition, usual class: inhibitors. P25779. 2.3% of 200,000 active;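 note: plate controls were enzyme without inhibitor for no effect and buffer without enzyme for full effect; nearly all actives have a fitted effect of over 40% in size; top concentration of the series not given in the record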
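Purified cruzain at 1.5 nM, pre-incubated 15 min with compound at room temperature in 100 mM sodium acetate pH 5.5, 5 mM DTT, 0.00005% Triton X-100. Reaction started with 2 uM Z-FR-AMC; AMC fluorescence increase over 60 s gives rate.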
NS1 inh = blocks influenza NS1 protein function. S. cerevisiae slowed by influenza A NS1, growth recovery by OD600. Potency, µM (series often up to 46.1 µM), for the others: at the highest dose activity, positive = more growth. 0.4% of 270,000 active; active means well fitted rising curve with a large enough effect; inconclusive means small, poorly fitted or top-dose-only effect; inactive means no such curve, though single readings can be large or run the other way; note: nearly all actives have a fitted effect of over 50% in size
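Read-out: OD600 growth recovery of NS1-expressing budding yeast. Cells grown overnight at 30C in -URA glucose medium, washed, resuspended and diluted 1:100 in 2% galactose assay medium, pH 6.0. Same strain lacking NS1 served as positive control.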
SARS PLP yeast = inhibitors of SARS-CoV papain-like protease in yeast; Potency, µM (doses to about 32.9 µM), without a hit: top-dose activity, positive = growth rescue; S. cerevisiae expressing SARS-CoV PLpro, growth rescue; control for the full effect not named in the record; 0.19% of 330,000 active; active means well fitted rising curve with a large enough effect; inconclusive means small, poorly fitted or top-dose-only effect; inactive means no such curve, though single readings can be large or run the other way; note: 0% is about no effect; nearly all actives have a fitted effect of over 55% in size; growth read by luminescence after 48 h
The depositor's hits bear a star; ? = inconclusive; / = no result given; & = joins results of further samples; [ ] = dose if it differs, or a comment. Unless noted, calls come from the whole dose curve; as a rule, active = well fitted curve in the direction sought with a large enough effect; inconclusive = small, poorly fitted or top-dose-only effect, or another doubt; inactive = no such curve, though single readings can be large; an effect the other way counts as inactive or inconclusive. Potency is the fitted concentration of half-maximal effect. Hits appear at their usual frequency. Share with any hit: about 4.8%.

SMILES	Lassa entry inh	Cruzain Triton	MARV entry inh	RE007 growth inh	2A StopGo	Cruzain inh noDet	NS1 inh	SARS PLP yeast
CCOc1cccc(N2C(=O)CC(N(CCc3ccc(OC)c(OC)c3)C(=O)CC)C2=O)c1 (stereo not given)	1%	-1.2%	0%&11%	-1%	-13%	?	-11%	1%&2%
CN(C)CCN1C(=O)C(=O)/C(=C(/O)c2ccc(S(=O)(=O)N3CCOCC3)cc2)C1c1ccc(F)cc1 (stereo not given)	8%	/	3%	6%	-6%	/	-1%	1%
COc1cc(N=Cc2c(O)c3ccccc3oc2=O)c(OC)cc1Cl	8%[46.1 µM]	/	?	3%	-24%	/	0%	2%
O=C(NCc1ccccn1)c1ccc(Cl)c(S(=O)(=O)N2CCCCCC2)c1	-12%	/	?	-6%	0%	/	-17%	-3%
Cc1ccccc1C1=Nn2c(nnc2-c2ccco2)SC1	/	/	/	2%	3%	/	-7%	-1%
O=C(CCC(=O)Nc1ccccc1)N/N=C/c1ccncc1	/	?	/	-1%	-20%	?	-1%	10%
CC(=O)c1csc(-c2ccccc2)n1	20%[46.1 µM]	/	2%[46.1 µM]	-13%	16%	/	2%	-1%
CN1CCN(CC(C)(C)NS(=O)(=O)c2ccc(Cl)cc2)CC1	-1%	3.6%	?	-15%	/	-3%	-2%	0%
Cc1c(NC(C)c2ccccc2O)c(=O)n(-c2ccccc2)n1C (stereo not given)	-16%	3.9%	-1%	-10%	-9%	2%	7%	10%
CC(C)CCn1c(SCC(N)=O)nc2c1c(=O)n(C)c(=O)n2C	/	1.6%	/	-16%	-14%	10%	1%	4%
O=C(NC1CCN(C(=S)Nc2ccc(F)cc2)CC1)C1CCCCC1	/	/	-21%[46.1 µM]	1%	-1%	/	3%	/
Cn1c(N)c(C(=O)COC(=O)Cn2cc(C(F)(F)F)ccc2=O)c(=O)n(C)c1=O	7%	1.9%	10%&10%	26%	-1%	5%	-8%	-3%
O=C1CN(C(=O)c2ccc(Cl)cc2Cl)C(c2ccc(F)cc2)c2cc(F)ccc2N1 (stereo not given)	?	-5.1%	0%[46.1 µM]	/	0%	3%	/	/
COc1ccc(S(=O)(=O)N2CCCCC2C(=O)O)cc1 (stereo not given)	7%	-2.7%	6%	12%	/	-2%	-8%	5%
CCN(CC)S(=O)(=O)c1cc(NC(=O)C(CC(C)C)NC(N)=O)ccc1C (stereo not given)	?	/	?	-25%	-11%	/	/	-3%
c1ccc(CN2CCCC3(CCCN(Cc4nc(CC5CC5)no4)C3)C2)cc1 (stereo not given)	/	/	/	-14%	17%	/	-2%	1%
O=C(c1ccccc1)C(Nc1ccccn1)c1ccccc1 (stereo not given)	3%	/	?	4%	-1%	/	1%	-1%
Cc1oc2c(CN3CCOCC3)c(O)ccc2c(=O)c1-c1ccc(Cl)cc1	/	/	/	-7%	-16%	/	-8%	0%
CCc1ccc(C(=O)NC(CC(C)C)C(=O)O)cc1 (stereo not given)	26%	0.9%	0%	7%	-15%	1%	2%	6%
CC(OC(=O)c1cccs1)C(=O)NCC1CCCO1 (stereo not given)	-3%	1.6%	0%	6%	13%	-7%	4%	2%
CC1(C)Cc2nc3n[nH]c(N)c3cc2CO1	6%	2.0%	-15%	-9%	2%	-3%	6%	-2%
CC(C)(C)NC(=O)CN(C(=O)C1CSC(=O)C1)c1ccccc1F (stereo not given)	1%[46.1 µM]	/	-9%[46.1 µM]	0%	-13%	/	/	2%
O=C(COC(=O)C1=COCCO1)Nc1ccc(F)cc1	0%	/	26%	-18%	-11%	/	/	7%
CCOc1ccccc1-n1nnc(S(=O)(=O)c2ccc(C)cc2)c1N	?	-2.0%	4%[46.1 µM]	/	-21%	0%	/	/
Cc1ccc(NC(=O)C2CC(=O)N(c3ccc4c5c(cccc35)CC4)C2)cc1 (stereo not given)	-16%	-5.9%	-9%	-2%	0%	5%	-25%	7%
SMILES	Lassa entry inh	Cruzain Triton	MARV entry inh	RE007 growth inh	2A StopGo	Cruzain inh noDet	NS1 inh	SARS PLP yeast
COc1ccc(-c2cc3nc4ccccc4n3c(N)c2C#N)cc1	/	/	/	4%	6%	/	-58%	-7%
O=C(NCCc1c[nH]c2ccccc12)c1cccc(Br)c1	-12%[46.1 µM]	/	?	-5%	10%	/	-7%	-6%
Cc1ccc(CNCc2ccc3c(c2)OCO3)c(C)c1	20%[46.1 µM]	/	?	3%	-14%	/	7%	3%
Cc1ccc(NC(=O)/C(=C/c2cccs2)NC(=O)c2ccco2)c(C)c1	2%	-4.6%	-3%	1%	-9%	-1%	0%	7%
O=C(Oc1ccccc1)c1ccc(COC(=O)c2cnccn2)cc1	6%	-4.6%	?	13%	49%[activator]	3%	-34%	-12%
COC(=O)c1ccc(CSc2nnc3ccccn23)o1	-8%	3.1%	1%	-5%	/	-9%	-19%	5%
CCOC(=O)C1=C(C)NC(C)=C(C(=O)OCC)C1c1ccc([N+](=O)[O-])s1	0%	/	?	7%&-5%	?	/	9%	-1%
O=C1CN(CC(=O)Nc2ccc(Cl)cc2)CCN1	9%	1.9%	14%	-6%	6%	4%	4%	6%
O=C(N/N=C/c1ccco1)c1ccc(OCc2ccccc2)cc1	16%	/	10%	18%	25%	/	-6%	0%
COc1ccc(C2OC(=O)CC2C(=O)NC2CCCC(C)C2C)cc1OC (stereo not given)	-2%	-0.6%	23%	11%	2%	7%	2%	5%
CCOC(=O)c1sc(NC(=O)COc2ccc3c(c2)OCO3)nc1C	0%	/	?	8%	0%	/	0%	-1%
O=C(/C=C/c1ccc(Cl)cc1)NC(=S)Nc1ccc(CN2CCOCC2)cc1	-1%	-7.8%	0%[46.1 µM]	-14%	-23%	?	19%	-15%
CCc1nc2ccccc2c(C(=O)NCc2ccccc2)c1C	7%	/	-4%	-5%	-7%	/	5%	0%
COc1ccc(OC)c(/C=C/C(=O)Nc2ccc(C(=O)OCCC(C)C)cc2)c1	?	-16%	/	/	-11%	?	/	/
O=C(Nc1ccnn1C1CCN(C/C=C/c2ccccc2)CC1)c1cccc(F)c1	12%[46.1 µM]	/	?	-8%	-13%	/	6%	-6%
COc1ccc(N(C)C(=O)CCC(=O)Nc2ccc3nc(N4CCOCC4)cc(C)c3c2)c(OC)c1	-7%	-6.5%	?	-1%	0%	-2%	-11%	-3%
CCOc1ccccc1N1C(=O)c2ccc(C(=O)Nc3cccnc3)cc2C1=O	/	-5.5%	/	6%	-18%	-6%	-40%	-7%
S=c1[nH]nc(CCCc2n[nH]c(=S)o2)o1	23%	/	6%&6%[46.1 µM]	1%	-2%	/	6%	2%
COc1ccc(CC(NC(C)=O)C(=O)NC2CCN(C(=O)c3ccccc3F)CC2)cc1 (stereo not given)	-6%	/	0%[46.1 µM]	2%	-6%	/	-4%	1%
CC(=O)c1c(C)[nH]c(C(=O)OC2CCOC2=O)c1C (stereo not given)	3%	1.5%	-14%	-2%	-18%	-1%	1%	1%
CCOC(=O)c1cccc(NC(=O)CSc2nnc(-c3ccncc3)n2CCCOC)c1	0%	-0.3%	?	6%	-12%	4%	-14%	2%
O=C1CN(C(=S)NC(=O)c2ccc(-c3ccccc3)cc2)CCN1	/	/	/	36%	32%[activator]	/	-1%	0%
CCn1c(C)c2c(C)nnc(C)c2c1C	8%	1.8%	8%	7%	-10%	1%	2%	-3%
Cc1cccc(NC(=O)CSc2nnc(CNC(=O)c3ccco3)o2)c1	1%[46.1 µM]	/	-18%[46.1 µM]	5%	1%	/	10%	-5%
COC(=O)c1ccc(CNC(=O)C2CCC(=O)N(CCN3CCOCC3)C2)cc1 (stereo not given)	-1%	/	25%	-5%	1%	/	14%	-2%
SMILES	Lassa entry inh	Cruzain Triton	MARV entry inh	RE007 growth inh	2A StopGo	Cruzain inh noDet	NS1 inh	SARS PLP yeast
O=C(NCC1CCCO1)c1ccc(Oc2ccc([N+](=O)[O-])cc2)cc1 (stereo not given)	/	/	/	1%	?	/	-8%	-1%
Cc1cc(C(=O)Nc2c(C)nn(Cc3ccc(F)cc3)c2C)no1	5%[46.1 µM]	-4.0%	-8%[46.1 µM]	/	-11%	5%	/	/
Cc1oc(-c2ccccc2F)nc1CS(=O)(=O)CC(=O)NCCCN1CC(C)CC(C)C1 (stereo not given)	29%[46.1 µM]	/	?	-2%	-19%	/	-2%	4%
Cc1ccc(-c2[nH]ncc2CN2CCN(C(=O)c3cccs3)CC2)cc1C	?	/	-29%	-16%	-30%	/	-9%	4%
CN(C)C(=O)c1cc(C(=O)c2ccc(C(F)(F)F)cc2F)c[nH]1	19%	/	?	8%	17%	/	/	-1%
NC(=O)C1CCN(CC(=O)Nc2nccs2)CC1	-1%[46.1 µM]	/	-2%[46.1 µM]	-9%	1%	/	7%	3%
O=C(O)CCN(CCC(=O)O)c1nnc(SCc2ccccc2)s1	4%	-1.2%	-6%&-6%[46.1 µM]	-2%	4%	-3%	8%	14%
O=C(NCCC1=CCCCC1)c1cccc(S(=O)(=O)N2CCCCC2)c1	?	/	-19%	-6%	-10%	/	/	1%
C=CCn1c(C2CC2)n[nH]c1=S	3%	/	13%	1%	-14%	/	/	8%
C=CCSc1ncccc1C(=O)NCCc1ccccc1	15%[46.1 µM]	/	9%[46.1 µM]	0%	34%[activator]	/	-6%	-2%
Cc1ccc(S(=O)(=O)NC(=NCC(=O)O)c2ccccc2)cc1	21%	2.4%	9%	12%	-20%	0%	-12%	-5%
CCCCS(=O)CC(CS(=O)CCCC)OC(=O)c1ccccc1 (stereo not given)	-4%	-0.5%	18%	-1%	27%	-1%	-3%	2%
CCN(CC(=O)NCc1ccc(F)cc1)C(=O)c1oc2ccccc2c1C	?	/	8.9µM*	-12%	34%	/	12%	9%
CNC(=O)O/N=C(\N)Cc1csc2ccccc12	?	/	?	10%	-1%	/	-55%	?
Cc1c(C(=O)O)oc2c1C(O)CC(C)(C)C2 (stereo not given)	16%&-10%	2.7%&0.8%	-3%&18%	8%&6%	14%&-6%	-2%&-5%	2%&-3%	7%&1%

Compound activity from PubChem BioAssay.
